Screening data from PubChem.
A1 apoptosis 2 – A1 inhibition read as caspase activation | MEF A1-2A-BIM cells, caspase-Glo luminescence, 3 h; percent of clofoctol response, DMSO zero | caspase activation, % (test concentration not listed) | 24,000 tested, under 10 active; in the data active means caspase activation above about 5.9%;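 further: wells of about 30 µL received 50 nL stock; the first replicate is given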
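Material: A1-2A-BIM-expressing MEF cells. Buffer or medium: RPMI-1640 plus 10% FBS. Incubation: cells settled overnight, compound exposure 3 h at 37 °C, 5% CO2. Signal: Caspase-Glo 3/7 luminescence, 1 h at room temperature.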
* hit, by the source's call. This is a subset; count on the stated rates, not on these rows.

Compound	A1 apoptosis 2
Cc1noc(C)c1S(=O)(=O)Nc1ccc2c(c1)C(=O)N([C@@H](C)CO)C[C@H](C)[C@@H](CN(C)C(=O)NC(C)C)OCCCC[C@@H](C)O2	-0.2
Cc1ccc(S(=O)(=O)Nc2ccc3c(c2)C(=O)N([C@H](C)CO)C[C@@H](C)[C@@H](CN(C)CC2CCCCC2)OCCCC[C@H](C)O3)cc1	-1.6
CC(C)NC(=O)Nc1ccc2c(c1)C(=O)N([C@H](C)CO)C[C@@H](C)[C@@H](CN(C)C(=O)Nc1ccccc1)O2	-1.3
C[C@H](CO)N1C[C@H](C)[C@@H](CN(C)S(=O)(=O)c2ccc(F)cc2)Oc2ccc(NS(=O)(=O)c3cn(C)cn3)cc2C1=O	0.4
C[C@@H]1CN([C@@H](C)CO)C(=O)c2cc(NS(=O)(=O)c3ccc(Cl)cc3)ccc2O[C@@H](C)CCCCO[C@@H]1CN(C)Cc1ccncc1	0.0
C[C@@H]1CN([C@@H](C)CO)C(=O)c2cc(NS(=O)(=O)c3ccc(Cl)cc3)ccc2O[C@@H](C)CCCCO[C@@H]1CN(C)C	0.5
C[C@H]1CN([C@@H](C)CO)C(=O)Cc2cc(NS(=O)(=O)c3ccccc3)ccc2O[C@H]1CN(C)S(=O)(=O)c1cn(C)cn1	-1.3
C[C@H]1CN([C@@H](C)CO)C(=O)c2cccc(NC(=O)CCCCCC(=O)Nc3ccccc3N)c2O[C@H]1CN(C)C(=O)NC1CCCCC1	0.6
C[C@H]1CCCCO[C@H](CN(C)CC2CC2)[C@@H](C)CN([C@@H](C)CO)C(=O)c2cc(NC(=O)c3ccncc3)ccc2O1	-1.3
COc1ccc(CN(C)C[C@@H]2Oc3ccc(NC(=O)c4ccncc4)cc3C(=O)N([C@H](C)CO)C[C@H]2C)cc1	-0.1
C[C@H]1CN([C@@H](C)CO)C(=O)c2cccc(NS(=O)(=O)c3cn(C)cn3)c2O[C@H]1CN(C)C(=O)Nc1cccc2ccccc12	-0.7
COc1ccc(NC(=O)Nc2ccc3c(c2)C(=O)N([C@@H](C)CO)C[C@H](C)[C@H](CN(C)C(=O)Nc2ccc(OC)cc2)OCCCC[C@@H](C)O3)cc1	0.3
C[C@H]1CN([C@@H](C)CO)C(=O)Cc2cc(NC(=O)CCN3CCOCC3)ccc2O[C@@H]1CN(C)Cc1ccncc1	0.4
Cc1noc(C)c1S(=O)(=O)Nc1ccc2c(c1)C(=O)N([C@@H](C)CO)C[C@@H](C)[C@@H](CN(C)C(=O)CCC(F)(F)F)OCCCC[C@@H](C)O2	-1.4
Cc1noc(C)c1S(=O)(=O)N(C)C[C@@H]1OCCCC[C@H](C)Oc2ccc(NC(=O)Cc3ccccc3)cc2C(=O)N([C@@H](C)CO)C[C@H]1C	-0.1
Cc1noc(C)c1S(=O)(=O)N(C)C[C@H]1Oc2ccc(NC(=O)CCCCCC(=O)Nc3ccccc3N)cc2CC(=O)N([C@H](C)CO)C[C@H]1C	0.0
CNC[C@H]1Oc2ccc(NS(=O)(=O)c3c(C)noc3C)cc2CC(=O)N([C@@H](C)CO)C[C@H]1C	1.8
C[C@@H]1CN([C@H](C)CO)C(=O)CCCn2nncc2CO[C@@H]1CN(C)Cc1ccc2c(c1)OCCN2C	0.5
COc1ccc(NC(=O)N(C)C[C@@H]2Oc3c(NS(=O)(=O)c4cccs4)cccc3C(=O)N([C@H](C)CO)C[C@H]2C)cc1	-0.6
C[C@@H]1CCCCO[C@H](CN(C)S(=O)(=O)c2cn(C)cn2)[C@@H](C)CN([C@@H](C)CO)C(=O)c2cc(NS(=O)(=O)c3cn(C)cn3)ccc2O1	0.2
CC(C)NC(=O)Nc1ccc2c(c1)C(=O)N([C@H](C)CO)C[C@H](C)[C@H](CN(C)Cc1ccncc1)OCCCC[C@H](C)O2	0.0
C=CCOC(=O)C1=C[C@H](c2cn(C(C)=O)c3ccccc23)C[C@H](OCc2ccc(CO)cc2)O1	-1.0
O=C1O[C@@H](c2ccccc2)[C@@H](c2ccccc2)N2[C@@H](c3ccc(O)cc3)[C@]3(C(=O)Nc4ccc(C#CC5(O)CCCCCC5)cc43)[C@@H](C(=O)N3CCCCCCC3)[C@H]12	0.5
Cc1noc(C)c1NC(=O)N(C)C[C@@H]1Oc2ccc(NC(=O)CCC(F)(F)F)cc2CC(=O)N([C@H](C)CO)C[C@@H]1C	-0.7
C[C@@H]1CN([C@@H](C)CO)C(=O)c2cc(NC(=O)C3CCCCC3)ccc2O[C@@H](C)CCCCO[C@@H]1CN(C)C(=O)C1CCCCC1	1.4
C[C@H]1CN([C@@H](C)CO)C(=O)c2cccc(NC(=O)Nc3ccccc3)c2O[C@H]1CN(C)C(=O)Nc1ccc2c(c1)OCO2	0.4
C[C@@H]1CN([C@@H](C)CO)C(=O)c2cccc(NC(=O)C3CCOCC3)c2O[C@@H]1CN(C)C(=O)Nc1ccc(C(F)(F)F)cc1	-0.9
C[C@@H]1CCCCO[C@@H](CN(C)C(=O)Nc2ccc(F)cc2)[C@@H](C)CN([C@@H](C)CO)C(=O)c2cc(NC(=O)CCCN(C)C)ccc2O1	-1.6
O=C(O)C1=C[C@@H](c2ccc(Br)cc2)C[C@@H](OCc2ccc(CO)cc2)O1	0.3
O=C(NO)c1cccc(C(=O)N/N=C/c2ccccn2)c1	0.3
CC(C)NC(=O)Nc1cccc2c1O[C@@H](CN(C)C(=O)Nc1ccc(C(F)(F)F)cc1)[C@@H](C)CN([C@H](C)CO)C2=O	-0.7
C[C@@H]1CN([C@H](C)CO)C(=O)c2cc(N(C)C)ccc2O[C@@H](C)CCCCO[C@H]1CN(C)S(=O)(=O)c1ccc(Cl)cc1	-1.8
COc1ccc(CN(C)C[C@H]2OCCCC[C@@H](C)Oc3ccc(NC(=O)Nc4ccc(OC)cc4)cc3C(=O)N([C@H](C)CO)C[C@@H]2C)cc1	-1.4
CNC[C@@H]1Oc2ccc(NC(=O)Nc3ccc4c(c3)OCO4)cc2CC(=O)N([C@@H](C)CO)C[C@@H]1C	1.9
COc1cc2c(cc1OC)CN(C(=O)[C@@H]1[C@H]3C(=O)O[C@H](c4ccccc4)[C@H](c4ccccc4)N3[C@H](c3ccc(O)cc3)[C@@]13C(=O)Nc1ccc(C#CC4=CCCCC4)cc13)CC2	1.2
C[C@@H]1CN([C@@H](C)CO)C(=O)Cc2cc(NC(=O)Cc3ccccc3)ccc2O[C@H]1CN(C)S(=O)(=O)c1cn(C)cn1	0.8
C[C@@H]1CN([C@@H](C)CO)C(=O)c2cccc(NC(=O)C3CCOCC3)c2O[C@@H]1CN(C)S(C)(=O)=O	-0.4
CNC[C@H]1Oc2c(NC(=O)Nc3ccc(F)cc3)cccc2C(=O)N([C@H](C)CO)C[C@@H]1C	1.0
Cc1ccc(S(=O)(=O)N(C)C[C@H]2Oc3ccc(NC(=O)Nc4cccc5ccccc45)cc3CC(=O)N([C@H](C)CO)C[C@@H]2C)cc1	0.7
Cc1ccc(S(=O)(=O)N(C)C[C@@H]2Oc3ccc(NS(=O)(=O)c4cn(C)cn4)cc3CC(=O)N([C@H](C)CO)C[C@@H]2C)cc1	1.2
COc1ccc(CN(C)C[C@H]2OCc3cnnn3CCCC(=O)N([C@H](C)CO)C[C@@H]2C)cc1	0.3
C[C@H](CO)N1C[C@H](C)[C@@H](CN(C)Cc2ccc(C(=O)O)cc2)Oc2c(NC(=O)c3ccc(-c4nccs4)cc3)cccc2C1=O	-0.5
O=C(CCCCCCC(=O)Nc1ccccc1O)N/N=C/c1ccc(-c2ccccc2)cc1	-1.1
COc1ccc(CN(C)C[C@H]2Oc3ccc(NC(=O)CCN4CCOCC4)cc3C(=O)N([C@H](C)CO)C[C@@H]2C)cc1	0.9
C[C@@H]1CN([C@@H](C)CO)C(=O)c2cccc(NC(=O)Nc3ccccc3)c2O[C@H]1CN(C)Cc1ccccc1	-0.5
Cc1ccc(S(=O)(=O)N(C)C[C@@H]2Oc3ccc(NS(=O)(=O)c4cn(C)cn4)cc3C(=O)N([C@@H](C)CO)C[C@@H]2C)cc1	1.4
C[C@@H]1CN([C@H](C)CO)C(=O)Cc2cc(NC(=O)Cc3cn(C)c4ccccc34)ccc2O[C@H]1CN(C)Cc1ccc(C(F)(F)F)cc1	0.5
O[C@@H](Cc1ccccc1)[C@@H](/C=C/C1CC1)N(CC#Cc1ccccc1)Cc1ccccc1Br	1.0
CC(C)NC(=O)Nc1ccc2c(c1)C(=O)N([C@@H](C)CO)C[C@H](C)[C@@H](CN(C)CC1CCCCC1)OCCCC[C@@H](C)O2	0.6
COc1ccc(S(=O)(=O)Nc2ccc3c(c2)C(=O)N([C@@H](C)CO)C[C@H](C)[C@@H](CN(C)Cc2ccccc2)OCCCC[C@@H](C)O3)cc1	-0.7

Next part.
Compound	A1 apoptosis 2
C[C@@H]1CN([C@@H](C)CO)C(=O)c2cc(NC(=O)C3CC3)ccc2O[C@@H]1CN(C)Cc1ccc(Oc2ccccc2)cc1	-0.9
C[C@@H]1CN([C@@H](C)CO)C(=O)c2cc(NC(=O)Cc3ccccc3)ccc2O[C@@H]1CN(C)C(=O)NC1CCCCC1	1.1
C[C@@H]1CN([C@H](C)CO)C(=O)c2cccc(NS(=O)(=O)c3cn(C)cn3)c2O[C@@H]1CN(C)S(=O)(=O)c1cn(C)cn1	0.7
C[C@@H]1CN([C@H](C)CO)C(=O)c2cccc(NS(=O)(=O)c3ccc(F)cc3)c2O[C@H]1CN(C)Cc1ccc(C(=O)O)cc1	-0.2
C[C@@H]1CN([C@@H](C)CO)C(=O)c2cc(NC(=O)c3ccncc3)ccc2O[C@@H](C)CCCCO[C@@H]1CN(C)C(=O)Nc1ccc(C(F)(F)F)cc1	-0.6
C[C@@H]1CN([C@H](C)CO)C(=O)c2cc(NC(=O)CCCCCC(=O)Nc3ccccc3N)ccc2O[C@@H]1CN(C)C(=O)NC1CCCCC1	3.2
C[C@H]1CN([C@@H](C)CO)C(=O)c2cc(NS(=O)(=O)c3cn(C)cn3)ccc2O[C@H]1CN(C)C(=O)Nc1ccccc1	0.3
O=C(NO)c1ccc(C(=O)N/N=C/c2ccc(CO)o2)cc1	0.8
Cc1noc(C)c1S(=O)(=O)N(C)C[C@H]1Oc2ccc(NC(=O)Nc3ccc(C(F)(F)F)cc3)cc2CC(=O)N([C@@H](C)CO)C[C@H]1C	-1.1
COc1ccc(S(=O)(=O)Nc2ccc3c(c2)C(=O)N([C@H](C)CO)C[C@@H](C)[C@H](CN(C)S(=O)(=O)c2ccccc2)OCCCC[C@H](C)O3)cc1	-1.5
C[C@@H]1CN([C@@H](C)CO)C(=O)c2cc(NC(=O)Cc3cn(C)c4ccccc34)ccc2O[C@H]1CN(C)C(=O)Nc1ccccc1	-0.2
C[C@@H]1CN([C@@H](C)CO)C(=O)Cc2cc(NS(=O)(=O)c3ccc(Cl)cc3)ccc2O[C@@H]1CN(C)Cc1ccc(C(=O)Nc2ccccc2N)cc1	0.7
COc1ccc(S(=O)(=O)Nc2ccc3c(c2)C(=O)N([C@@H](C)CO)C[C@@H](C)[C@@H](CN(C)C(=O)CCC(F)(F)F)OCCCC[C@H](C)O3)cc1	-0.6
COc1ccc(NC(=O)Nc2ccc3c(c2)CC(=O)N([C@@H](C)CO)C[C@@H](C)[C@@H](CN(C)Cc2ccc(Cl)c(Cl)c2)O3)cc1	0.1
Cc1noc(C)c1S(=O)(=O)Nc1ccc2c(c1)CC(=O)N([C@H](C)CO)C[C@@H](C)[C@@H](CN(C)S(=O)(=O)c1c(C)noc1C)O2	-0.3
C[C@@H]1CN([C@H](C)CO)C(=O)c2cc(NC(=O)c3ccncc3)ccc2O[C@@H](C)CCCCO[C@@H]1CN(C)Cc1ccc2c(c1)OCO2	-0.4
Cc1noc(C)c1NC(=O)Nc1cccc2c1O[C@H](CN(C)S(=O)(=O)c1ccc(Cl)cc1)[C@@H](C)CN([C@H](C)CO)C2=O	1.4
COc1ccc(S(=O)(=O)N(C)C[C@H]2Oc3c(NC(=O)NC4CCCCC4)cccc3C(=O)N([C@H](C)CO)C[C@H]2C)cc1	-1.2
C[C@@H]1CN([C@H](C)CO)C(=O)c2cc(NC(=O)CCC(F)(F)F)ccc2O[C@@H](C)CCCCO[C@@H]1CN(C)Cc1ccc(Cl)c(Cl)c1	-2.1

An excerpt from above in order of length of the SMILES, lowest first.
Compound	A1 apoptosis 2
O=C(NO)c1ccc(C(=O)N/N=C/c2ccc(CO)o2)cc1	0.8
C[C@@H]1CN([C@@H](C)CO)C(=O)c2cc(NC(=O)C3CC3)ccc2O[C@@H]1CN(C)Cc1ccc(Oc2ccccc2)cc1	-0.9
C[C@@H]1CN([C@@H](C)CO)C(=O)c2cc(NC(=O)Cc3cn(C)c4ccccc34)ccc2O[C@H]1CN(C)C(=O)Nc1ccccc1	-0.2
Cc1noc(C)c1S(=O)(=O)N(C)C[C@H]1Oc2ccc(NC(=O)Nc3ccc(C(F)(F)F)cc3)cc2CC(=O)N([C@@H](C)CO)C[C@H]1C	-1.1
Cc1noc(C)c1S(=O)(=O)Nc1ccc2c(c1)CC(=O)N([C@H](C)CO)C[C@@H](C)[C@@H](CN(C)S(=O)(=O)c1c(C)noc1C)O2	-0.3
C[C@@H]1CN([C@H](C)CO)C(=O)c2cc(NC(=O)CCC(F)(F)F)ccc2O[C@@H](C)CCCCO[C@@H]1CN(C)Cc1ccc(Cl)c(Cl)c1	-2.1

Part of the list above in another layout.
> Cc1noc(C)c1S(=O)(=O)N(C)C[C@H]1Oc2ccc(NC(=O)Nc3ccc(C(F)(F)F)cc3)cc2CC(=O)N([C@@H](C)CO)C[C@H]1C
- A1 apoptosis 2: -1.1
> COc1ccc(S(=O)(=O)Nc2ccc3c(c2)C(=O)N([C@H](C)CO)C[C@@H](C)[C@H](CN(C)S(=O)(=O)c2ccccc2)OCCCC[C@H](C)O3)cc1
- A1 apoptosis 2: -1.5
